# Assay outcomes: PubChem BioAssay, ICCB-Longwood Screening Facility, Harvard Medical School
# AID504770: E. coli YBA685 growth inhibition, screen for V. cholerae RctB inhibitors. z-score (test concentration not listed). E. coli YBA685 rctB-dependent plasmid, OD600 growth, 3 h; stronger effect = lower value. actives 0.27% (n = 130,000);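 active means z-score under -2 on both plates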;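 further: wells of about 30 µL received 100 nL stock; score is relative to mean and SD of the test wells; the first replicate is given; strong numbers were not always called active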
# CapD inh: blocks the Bacillus anthracis CapD enzyme | actives 0.23% (n = 140,000) | z-score (test concentration not listed) | AID 492967 | purified CapD enzyme, fluorescence intensity read-out; stronger effect = lower value; some hits fall short of the stated cut;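 active means z-score under -4 in either of two replicates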;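 further: stock transfer was 100 nL into about 40 µL; score is relative to mean and spread of the plate; one replicate is shown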
# The depositor's hits bear a star; · = not tested or not shown. Not all compounds are listed; rates above refer to the full screens.
# Value order: AID504770	CapD inh
1: CCN(CC)C(=O)c1cc2cccnc2n(Cc2ccccc2)c1=O
 : -1.2	3.51
2: COc1ccc(N2CCN(S(=O)(=O)c3ccc(F)c(C(=O)Nc4cc(OC)ccc4OC)c3)CC2)cc1
 : ·	0.52
3: Cc1noc(C)c1C(=O)NCCCc1ccccc1
 : -0.25	0.525
4: O=C(NC(=S)Nn1cnnc1)C1CCCCC1
 : -0.65	·
5: CC(C)OC(=O)CSc1nc2cccnc2n1C1CCCCC1
 : 1.85	·
6: CCOc1ccc(N2C(=O)NC(=O)/C(=C\c3cc(OC)c(OC)cc3[N+](=O)[O-])C2=O)cc1
 : ·	0.105
7: N#Cc1ccc(Oc2sccc2[N+](=O)[O-])cc1
 : ·	-0.385
8: OC1(C#CCN2CCOCC2)CCCCC1
 : -0.3	0.64
9: O=[N+]([O-])c1cccc(CSc2nc3ccccc3n2S(=O)(=O)c2ccc(Br)cc2)c1
 : ·	0.195
10: CCOC(=O)c1c(C)oc2ccc(OCC(=O)c3ccc(Br)cc3)cc12
 : ·	-0.13
11: Cc1cccc(C)c1-n1nnnc1SCc1ccc(Cl)cc1
 : ·	-0.22
12: C=CCN(C(=O)Cc1c(C(=O)O)[nH]c2ccccc12)c1ccccc1
 : -0.2	0.135
13: FC(F)(F)c1cccc(N2CCN(C3CCCCCC3)CC2)c1
 : 1.9	0.26
14: O/N=C/c1ncc(C(F)(F)F)cc1Cl
 : -0.85	-0.14
15: CN(Cc1ccccc1)S(=O)(=O)c1ccc(F)c(C(=O)Nc2c(F)cc(F)cc2Br)c1
 : ·	-1.16

# Value order: AID504770	CapD inh
16: N#CCS(=O)c1ccccn1 (stereo not given)
 : ·	-0.13
17: COc1ccc(-n2ccc(=O)c(Cc3c(Cl)cccc3Cl)c2C)cc1
 : ·	-0.09
18: O=C(CSc1ccc(-c2ccccc2)nn1)NCC1CCCO1 (stereo not given)
 : -1	·
19: S=C(NCCN1CCCCC1)NCC1CCCO1 (stereo not given)
 : -0.95	-0.19
20: CC1CC(C)CN(S(=O)(=O)c2ccc(NN)nc2)C1 (stereo not given)
 : 0.75	·
21: N/C(=N\OC(=O)c1ccc([N+](=O)[O-])cc1)c1cccc([N+](=O)[O-])c1
 : ·	0.05
22: C/C=C(\C(C)=N\O)c1ccccc1
 : 0.3	0.345
23: CC(C(=O)c1ccccc1)[n+]1cccc(Br)c1 (stereo not given)
 : 0.45	-1.21
24: CCOC(=O)n1nccc1-c1ccc(-c2cccs2)s1
 : 0.75	14.3
25: CSc1cccc(NC(=O)CC(CC(=O)O)c2ccc(C(F)(F)F)cc2)c1 (stereo not given)
 : ·	0.685
26: CC(C)C(=O)N1c2ccccc2NC2=C(C(=O)CC(C)(C)C2)C1c1ccc(Br)s1 (stereo not given)
 : ·	0.94
27: Cn1c(=O)c2c(nc(CN(Cc3ccccc3)Cc3ccccc3)n2CCCO)n(C)c1=O
 : ·	-0.185
28: CCOC(=O)c1ccc(N=C(C)c2c(-c3ccccc3)[nH]n(-c3nc4ccccc4s3)c2=O)cc1
 : ·	0.785
29: COc1ccc(N2C(=O)CC(Sc3nc4c(cc3C#N)CCCCC4)C2=O)cc1 (stereo not given)
 : ·	0.365
30: CC(=O)Nc1ccc(S(=O)(=O)N2CC(C)OC(C)C2)cc1 (stereo not given)
 : 0.2	-0.245

# Value order: AID504770	CapD inh
31: O=C(O)COc1ccc(/C=C2/NC(=O)N(c3ccccc3)C2=O)cc1
 : 0.35	-1.08
32: CCOc1ccc2nc(N3CCCCC3)sc2c1
 : -0.55	-0.52
33: O=C(c1nn2c(c1Br)NC(c1cccs1)CC2C(F)(F)F)N1CCCc2ccccc21 (stereo not given)
 : ·	-0.665
34: CCn1c(SCC(=O)OC2CCCCC2)nnc1-c1ccc(OC)cc1
 : 1.85	·
35: COc1ccc(C2=NS(=O)(=O)N(C)C(C(=O)NCC(C)C)=C2)cc1OC
 : -0.1	-1.93
36: CCOc1ccccc1N(C)S(=O)(=O)c1ccc2c(c1)CCN2C(=O)CCC(=O)O
 : 0	0.645
37: O=c1[nH]nc(-c2nnc3n2CCCCC3)c2ccccc12
 : 1.2	·
38: COc1ccc(/C=C2\C(=O)c3ccccc3OC2c2ccccc2)cc1 (stereo not given)
 : -0.05	-1.35
39: Cc1cccn2c(=O)c(/C=C3\SC(=S)N(Cc4ccccc4)C3=O)c(NCc3ccco3)nc12
 : ·	-0.085
40: Cc1ccc(CCOC(=O)NNC(=O)C2CN(C)CCN2C)cc1 (stereo not given)
 : ·	-0.665
41: Cc1ccc(NS(C)(=O)=O)cc1N=Cc1cc(Br)ccc1O
 : ·	-1.35
42: Cc1sc[n+](Cc2ccccc2)c1C
 : 1.4	0.13
43: COC(=O)C(=Cc1ccc(-c2ccsc2C(=O)OC)o1)C(=O)OC
 : -0.4	2.05
44: CC(C)(C)C(=O)Nc1ccc(Cc2ccncc2)cc1
 : -0.9	-0.075
45: O=C(COc1ccc(Cl)cc1)Nc1c(F)c(F)c(F)c(F)c1F
 : -1.2	-0.265

# Value order: AID504770	CapD inh
46: CC(/C=N/Nc1nc2ccccc2[nH]1)c1ccccc1 (stereo not given)
 : -0.3	·
47: COc1ccccc1-n1cc(C(=O)c2ccccc2O)cc(C#N)c1=O
 : -0.2	·
48: O=S(=O)(c1cccc(S(=O)(=O)N2CCOCC2)c1)N1CCOCC1
 : 1.9	-0.51
49: CCCCNC(=S)Nc1ccc(OC)cc1
 : 2.05	-0.16
50: CC1=NC(O)(C23CC4CC(CC(C4)C2)C3)C(C)S1 (stereo not given)
 : 0.35	-1.98
51: O=C1CCCN2C(=N1)SC(=S)N2CN1CC2CC(C1)c1cccc(=O)n1C2 (stereo not given)
 : 1	·
52: Cc1ccc2c(c1)/C(=N/OC(=O)c1cccc(C(F)(F)F)c1)CCS2
 : ·	0.14
53: O=C1NC(=O)C(CCc2ccncc2)(CCc2ccncc2)C(=O)N1C1CCCCC1
 : -1	·
54: Cc1nc2cc(C(F)(F)F)ccc2s1
 : 1.15	-0.02
55: N/C(=N\O)c1ccc(C2OCCO2)cc1
 : 0.7	0.09
56: COc1ccc2c(CC(=O)OCC(=O)N3c4ccccc4CC3C)coc2c1 (stereo not given)
 : 0.8	·
57: Cc1ccc(S(=O)(=O)N(CC(O)Cn2c3ccccc3c3ccccc32)c2c(C)cccc2C)cc1 (stereo not given)
 : ·	3.25
58: N#CCSc1nnc(CNc2ccc(Cl)cc2)n1-c1ccccc1
 : -0.6	·
59: CCOC(=O)c1c(C)oc2cc(Br)c(OCC(=O)OC(C)(C)C)cc12
 : ·	-0.54
60: COC(=O)c1ccc(NC(=S)NC(=O)CCN2C(=O)c3ccccc3C2=O)cc1
 : ·	0.18

# Value order: AID504770	CapD inh
61: CCSC1=NC(C)(C)C=C(C)N1
 : 0.85	-0.715
62: COc1cc(NC(=O)COc2ccc(Cl)cc2)c(C(=O)O)cc1OC
 : 1.2	0.77
63: COc1cc(/C=N/NC(=O)c2cccc(N3CCCC3=O)c2)ccc1O
 : 0.15	·
64: CCn1c(SCC(=O)O)nnc1-c1sc2cc(Cl)ccc2c1Cl
 : -1	-0.745
65: CN(C)S(=O)(=O)c1ccc(NC(=O)Cn2c(-c3ccccc3)noc2=O)cc1
 : -0.65	·
66: CCn1cc(CCCC(=O)NC2CCC(C)CC2)c2ccccc21 (stereo not given)
 : -1.45	0.715
67: Cc1cc(C(=O)CN2C(=O)C3CC=CCC3C2=O)c(C)n1CC1CCCO1 (stereo not given)
 : -0.9	·
68: CCOc1ccc(CN(Cc2ccco2)C(=O)NC2CCN(Cc3ccc4ccccc4c3)C2)cc1OC (stereo not given)
 : ·	0.08
69: COc1ccc(C2=NOC(C(=O)N3CCCC3)C2)cc1 (stereo not given)
 : -0.05	0.75
70: Cc1ccc(CNC(=O)C2c3ccccc3C(=O)N(C)C2c2cccs2)o1 (stereo not given)
 : -0.8	-0.29
71: CC(=O)OCC1OC(Oc2ccc(C(=O)COc3ccc(F)cc3)c(O)c2)C(OC(C)=O)C(OC(C)=O)C1OC(C)=O (stereo not given)
 : ·	-0.295
72: O=c1c2c([nH]n1-c1ccccc1)CCCC2
 : -0.15	·
73: O=C1c2ccccc2C(=O)N1CCN1CCCc2ccccc21
 : ·	0.52
74: Cc1cccc(-n2ncc3c(NCCCN4CCCC4=O)ncnc32)c1
 : -0.5	0.805
75: CCc1ccc2c(CN3CCC(C(=O)OC)CC3)cc(=O)oc2c1
 : 0.25	·

# Value order: AID504770	CapD inh
76: Cn1cc(NC(=O)N2CCCCC2CCO)c2ccccc21 (stereo not given)
 : -0.5	·
77: CC(=O)Oc1c(Cc2ccccc2)c(=O)oc2ccccc12
 : -0.6	-0.685
78: COc1ccccc1NC(=O)COC(=O)c1ccccc1
 : 1.95	·
79: Cc1ccc2c(c1)-c1nc3ccccc3cc1C2=Nc1ccccc1
 : ·	8.58
80: Cc1cc(=O)[nH]c(SCC(=O)NC(C)C2CC3CCC2C3)c1C#N (stereo not given)
 : -0.8	·
81: COc1ccccc1-n1cnc2cc(C(=O)NCc3cccnc3)ccc21
 : 0.8	1.16
82: COc1ccc(C(N)=NC#N)cc1
 : -0.45	0.78
83: COc1cc(C2NC(=O)NC(C)=C2C(=O)OCCOc2ccccc2)cc(Cl)c1O (stereo not given)
 : ·	-0.28
84: NC(=O)c1ccc(N(S(=O)(=O)C(F)(F)F)S(=O)(=O)C(F)(F)F)cc1
 : -0.35	·
85: Cc1cc(C)c2c(n1)sc1c(N3CCN(C)CC3)ncnc12
 : -0.05	7.69
86: CCCCCn1c(SCC(=O)c2ccc(Br)cc2)nc2cc(C(=O)N3CCC(C(N)=O)CC3)ccc2c1=O
 : ·	-1.52
87: COc1cccc(CN(C)CN2C(=O)NC3(CC(C)(C)NC(C)(C)C3)C2=O)c1OC
 : -0.9	·
88: CC(C(=O)Nc1cccc(F)c1)C1Sc2ccccc2NC1=O (stereo not given)
 : -0.5	-0.49
89: COc1ccc(/C=N/c2nnc(-c3ccccc3)c(-c3ccccc3)n2)c(C(=O)O)c1OC
 : -0.55	0.365
90: CCOc1ccccc1OC(C)C(=O)NC(C)(C#N)C(C)C (stereo not given)
 : -0.2	·

# Value order: AID504770	CapD inh
91: O=C1OCC(CO)N1c1ccccc1 (stereo not given)
 : 1.4	4.23
92: COc1cc(C=Nc2ccc(NC(C)=O)cc2)ccc1OC(=O)c1cccs1
 : 0.05	1.36
93: NC(=O)/C(=C\c1ccco1)NC(=O)c1ccc(Br)cc1
 : -1.1	-0.64
94: COc1ccccc1NC(=O)C1=C(C)Nc2nc3ccccc3n2C1c1cccnc1 (stereo not given)
 : 1.85	0.405
95: CCc1ccc(NC(=S)NCC(C)(C)N2CCOCC2)cc1
 : -0.5	·
96: Cc1ccc(Nc2nc(C3(C)CC4(CC(C)(C)OC4=O)C(=O)O3)cs2)cc1 (stereo not given)
 : ·	0.455
97: Oc1c(Br)cc(Br)cc1CNc1ccccc1Cl
 : ·	-0.36
98: O=c1oc2cc(OCc3ccc(F)cc3F)ccc2cc1-c1ccccn1
 : -0.35	115
99: CC(C)NS(=O)(=O)c1ccc(CN2C(=O)c3cccnc3C2=O)s1
 : -0.5	0.555
100: CN(CC(=O)NCc1ccccc1)S(=O)(=O)c1ccc(C(=O)N2CCOCC2)s1
 : -1.5	0.4
101: CN(C)C(C(=O)NC1CCCC1)c1ccc(Cl)cc1 (stereo not given)
 : -0.65	0.62
102: Cc1cccc(N2Cc3cccc(C(=O)O)c3C2=O)c1
 : -0.35	·
103: O=C(CSc1ccc(Cl)cc1)Nc1ccccc1
 : 0.1	0.18
104: C=CCN1C(=O)/C(=C/c2c(NCc3ccco3)nc3ccccn3c2=O)SC1=S
 : 3.1	0.945
105: Cc1ccc2nc(-c3cccc(C#N)c3)cn2c1
 : -0.35	21.4

# Value order: AID504770	CapD inh
106: COc1cc2nc(CN3CCC(C)CC3)[nH]c(=O)c2cc1OC
 : -0.7	·
107: CCOC(=O)CCN1C(=O)c2ccccc2C1=O
 : 1.3	0.925
108: CCC(Sc1nnc2c3ccccc3n(C)c2n1)C(=O)Nc1ccc(S(N)(=O)=O)cc1 (stereo not given)
 : -0.6	-0.355
109: CC(C)(C)Sc1ccccc1CN1CCN(C(=O)OCc2ccc([N+](=O)[O-])cc2)CC1
 : ·	-0.255
110: CCCNC(=O)c1ccc2c(c1)N(CC)CCS2
 : 0.2	103
111: COc1ccc(CC(=O)c2cc(OC)c(OC)cc2CC(=O)O)cc1OC
 : -1.4	-0.075
112: COc1cc(C(=O)/C=C/Nc2ccccc2C(N)=O)cc(OC)c1OC
 : 1.65	-0.34
113: CN1C(=O)c2ccccc2C(C(=O)NC2CC2)C1c1c[nH]c2ccccc12 (stereo not given)
 : 2.35	-0.005
114: CCc1ccc(N=Nc2sc3nc4c(c(=O)n(C)c(=O)n4C)n3c2O)cc1
 : -0.55	·
115: COC(=O)c1csc(S(=O)(=O)N=S(C)(=O)c2ccccc2)c1OC (stereo not given)
 : -1.7	0.145
116: COc1ccc2c(Sc3ccccc3)c(C(=O)NCCN3CCN(C)CC3)[nH]c2c1
 : 1.45	0.785
117: O=C(c1ccc(F)cc1)c1cccnc1
 : -0.75	0.06
118: CC1=C(c2ccccc2)S(=O)(=O)NC1=NCc1ccccc1
 : 0.45	0.155
